Assay outcomes deposited in PubChem by several laboratories.
MT1-MMP act inh = MT1-MMP (human) activation inhibition | 360,000 compounds, 0.061% hits | HT1080 RFP-PRO-GFP cells, GFP/RFP ratio fluorescence, overnight; percent of plate control window, DMSO zero | P50281 | AID 651647 | GFP/RFP ratio change, % at 20 µM;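 active = GFP/RFP ratio change of at least 30% with cell ATP level not reduced by more than half and red fluorescence within 50% of control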; note: strong numbers were not always called active
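system = RFP-PRO-GFP reporter HT1080 cells | dosing = 20 µM single dose, 1% DMSO | timing = overnight cell settling, then overnight compound exposure, 37 °C, 5% CO2 | read-out basis = GFP/RFP fluorescence ratio | controls = DMSO and RFP-L50D-GFP cell wells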
eIF4H FP inh = inhibitors of RNA binding by human eIF4H. 290,000 compounds, 0.94% hits. inhibition, % at 35 µM. Q15056. eIF4H fluorescence polarization binding assay;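 active = 50% or more with normal probe brightness, or confirmed in later tests; about a fifth of its hits are not listed in these tables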;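 note: calls also rest on retests at 20 µM and on dose response follow-up; 0% = protein and probe with vehicle and 100% = probe without protein; strong numbers were not always called active; many hits fall short of the cut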
Rce1 inh = inhibitors of yeast Ras-converting enzyme | Q03530 | AID 2563 | calls only | yeast membranes, quenched prenylated peptide cleavage fluorescence | 290,000 compounds, 0.27% hits;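 active = fall in fluorescence gain of 50% or more versus controls, with final raw signal at or below 3038400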;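 note: plate controls were neutral control wells for no effect and wells lacking membranes for full effect; tested at 10 µM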
Target sequence (Q03530 whole entry, looked up): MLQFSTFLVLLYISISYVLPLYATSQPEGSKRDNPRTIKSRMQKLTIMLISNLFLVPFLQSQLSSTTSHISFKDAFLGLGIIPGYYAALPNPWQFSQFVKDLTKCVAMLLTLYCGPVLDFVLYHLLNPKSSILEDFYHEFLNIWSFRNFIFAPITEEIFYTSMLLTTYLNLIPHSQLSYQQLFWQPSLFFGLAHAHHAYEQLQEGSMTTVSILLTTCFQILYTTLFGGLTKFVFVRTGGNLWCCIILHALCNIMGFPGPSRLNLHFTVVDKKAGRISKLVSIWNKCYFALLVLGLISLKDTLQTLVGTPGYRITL
UUG fidelity = alters start codon recognition fidelity in yeast; 350,000 compounds, 0.13% hits; activity score, % at 18.7 µM; S. cerevisiae UUG-firefly luciferase reporter, luminescence/redox ratio;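 active = replicate mean at a twofold rise or more, about +100% in these data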;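 note: firefly luciferase made from a UUG start codon reports start codon fidelity; reporter light over untreated wells divided by growth signal over untreated wells; some hits fall short of that in this replicate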
HIV Env fusion = blocks HIV Env-driven cell-cell fusion. HeLa-JRFL Env/CEM21 cell fusion, luciferase. inhibition, % at 12.3 µM. 360,000 compounds, 1.1% hits. AID 651610;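 active = mean replicate inhibition score of at least 50 and every replicate individually at or above 50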;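 note: 0% = plate neutral controls and 100% = maraviroc near 300 nM; one replicate is shown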
PABP polyA inh = PABP-poly(A) binding inhibition. P11940. PABP-poly(A) RNA binding, fluorescence polarization. inhibition, % at 35 µM. 290,000 compounds, 1% hits. AID 2014;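 active = 50% or more with normal probe brightness, or confirmed in later tests; about a fifth of its hits are not listed in these tables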;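 note: calls also rest on retests at 20 µM and on dose response follow-up; controls were probe without protein and protein plus probe with vehicle; some compounds called inactive have numbers as strong as hits; many hits fall short of the cut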
Target sequence (P11940 whole entry, looked up): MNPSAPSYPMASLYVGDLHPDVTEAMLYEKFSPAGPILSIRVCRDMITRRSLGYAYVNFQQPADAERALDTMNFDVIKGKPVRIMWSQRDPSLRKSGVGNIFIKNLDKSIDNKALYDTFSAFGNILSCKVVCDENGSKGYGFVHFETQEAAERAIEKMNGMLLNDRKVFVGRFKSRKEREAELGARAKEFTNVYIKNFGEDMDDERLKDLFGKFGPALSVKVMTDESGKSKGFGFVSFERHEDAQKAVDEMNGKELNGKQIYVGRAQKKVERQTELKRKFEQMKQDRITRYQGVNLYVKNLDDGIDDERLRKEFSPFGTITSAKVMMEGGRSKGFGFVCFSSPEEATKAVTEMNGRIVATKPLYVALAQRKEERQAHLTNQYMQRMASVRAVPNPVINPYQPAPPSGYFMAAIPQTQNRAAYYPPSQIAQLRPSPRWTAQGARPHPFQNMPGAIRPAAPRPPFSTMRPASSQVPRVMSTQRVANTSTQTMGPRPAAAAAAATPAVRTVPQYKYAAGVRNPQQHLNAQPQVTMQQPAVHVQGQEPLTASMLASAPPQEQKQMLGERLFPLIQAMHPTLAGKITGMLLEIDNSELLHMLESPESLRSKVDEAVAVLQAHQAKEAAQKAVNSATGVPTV
CSC inhib = blocks cancer stem cells; cancer stem cell-like cells viability, luminescence; inhibition, % at 7.5 µM; 300,000 compounds, 1.1% hits; AID 2717;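 active = mean at 75% or more and at least half the replicates too; tested in HMLE shEcad cells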;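 note: 0% = median of negative and 100% = median of positive control wells; the first replicate is given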
eIF4H FP inh retest = second read-out of eIF4H FP inh, no call of its own (marks repeat the call); inhibition, %; compound at 20 µM; confirmation average;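 mean of two retest wells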
PABP polyA inh retest = second read-out of PABP polyA inh, no call of its own (marks repeat the call); inhibition, %; compound at 20 µM; confirmation repeats;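 mean of two retest wells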
MT1-MMP act inh RFP = recorded beside MT1-MMP act inh, whose call it bears; RFP signal change, %; measured here: RFP expression control read;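 0 = vehicle wells; hits needed this value within 50% of zero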
Starred values were filed as active, the others as inactive; i = inactive; x = not tested or not shown.

SMILES | MT1-MMP act inh | MT1-MMP act inh RFP | eIF4H FP inh | Rce1 inh | UUG fidelity | HIV Env fusion | PABP polyA inh | CSC inhib | others
COc1nccnc1NS(=O)(=O)c1ccc(NC(=S)NC(=O)c2cccnc2)cc1 | 0.2 | 7.0 | -11.9 | i | x | 4.0 | -22.0 | -8.2
O=S(=O)(c1ccc(NC(=S)NC23CC4CC(CC(C4)C2)C3)cc1)N1CCCCC1 | 3.1 | -0.9 | x | x | -34.3 | -6.9 | x | x
O=C1CSC(=Nc2ccc(O)cc2)N1 | 1.3 | 3.5 | -10.2 | i | -14.8 | -14.4 | 6.1 | x
NC(=O)c1ccc(-n2nnnc2Oc2ccccc2)cc1 | 0.6 | -1.0 | -6.7 | i | -13.7 | x | -2.7 | -26.8
O=C(COc1ccc(F)cc1)N(Cc1ccc(Cl)cc1)C1CCS(=O)(=O)C1 (stereo not given) | 1.4 | 1.3 | -4.5 | i | 8.6 | 3.1 | -1.8 | -5.2
O=C(COc1ccccc1[N+](=O)[O-])N1CCC(Cc2ccccc2)CC1 | 0.3 | -2.3 | -0.4 | i | x | 5.0 | -3.3 | x
COC(=O)c1ccc(C2/C(=C(/O)c3ccc4c(c3)CC(C)O4)C(=O)C(=O)N2Cc2cccnc2)cc1 (stereo not given) | 2.8 | 2.7 | -2.0 | i | -18.1 | x | 6.3 | -7.1
CC1(C)CC(CCC(=O)Nc2ccc(S(N)(=O)=O)cc2)C(=O)O1 (stereo not given) | 0.8 | 6.9 | 0.3 | i | -3.9 | -20.1 | 13.5 | -10.6
Cc1c(C(=O)Nc2nccs2)oc2ccccc12 | -2.6 | 0.3 | x | x | -12.7 | -110.2 | x | x
Cc1ccc(NC(=O)CNC(C)c2ccccc2)cc1 (stereo not given) | 2.1 | 5.9 | 6.0 | i | -12.6 | -20.0 | -4.6 | -17.3
CCCSc1cc(Cl)nc(N)n1 | -1.6 | -2.1 | -5.5 | i | -1.2 | -8.9 | 7.5 | -6.9
COc1ccc(C(=O)NNC2CC(=O)N(Cc3ccccc3)C2=O)cc1OC (stereo not given) | -1.9 | -3.4 | 3.9 | i | x | 3.3 | 5.6 | -11.7
O=C(COc1ccc(Br)cc1Cl)N1CCN(c2ccccn2)CC1 | -3.7 | 6.2 | -12.8 | i | 0.2 | 18.9 | -3.6 | x
COc1ccc(-c2csc(NC(=O)CN3C(=O)C4CCCCC4C3=O)n2)cc1OC (stereo not given) | 2.5 | -4.3 | 1.3 | i | -6.9 | x | 3.3 | -12.6
CN(C)S(=O)(=O)c1ccc(C(=O)Nc2ccc3ncccc3c2)cc1 | 2.1 | 4.0 | 13.5 | i | -15.2 | -23.3 | -0.4 | -11.2
CCN(CC)S(=O)(=O)c1ccc(N2CC(C(=O)Nc3cccc(C(=O)NC4CC4)c3)CC2=O)cc1 (stereo not given) | 0.6 | -2.8 | x | x | -14.3 | 0.0 | x | x
N#Cc1ccc(-n2nccc2-c2cnc3n(c2=O)CCS3)cc1 | -7.0 | 1.2 | -5.3 | i | -7.6 | -20.0 | -2.8 | x
COc1ccc(S(=O)(=O)Nc2ccccc2C(=O)Nc2nc(-c3ccc(F)cc3)cs2)cc1OC | -17.5 | -34.2 | -9.8 | i | x | 65.8* | -7.0 | -10.5
CC(CCc1ccccc1)NC(=O)CN1CCN(Cc2ccc(Cl)cc2)C1=O (stereo not given) | 0.7 | -11.0 | -3.8 | i | -14.9 | 16.7 | -1.0 | -0.6
O=C(CCNC(=O)c1ccco1)Nc1ccc(N2CCOCC2)cc1 | -3.9 | -0.1 | -9.3 | i | x | 11.6 | -5.5 | -18.1
CCN1CCN(C(=O)C2CCCN(c3ncnc4c3nc3n4CCCCC3)C2)CC1 (stereo not given) | -4.1 | -0.1 | -0.8 | i | -11.9 | -5.1 | -2.5 | 7.8
CCCCN(C(=O)c1ccc(OC(F)(F)F)cc1)c1c(N)n(CCC)c(=O)[nH]c1=O | 3.3 | -2.2 | -5.2 | i | x | -2.2 | 9.6 | -5.2
O=C(CSc1nc2c(c(=O)[nH]1)CCC2)Nc1ccc(F)cc1 | 0.6 | 1.0 | -3.1 | i | -11.0 | 6.5 | 8.2 | x
COc1ccc(C/C(N)=N/n2cnnc2)cc1Cl | 2.8 | -1.1 | -4.5 | i | -3.0 | x | 0.2 | -8.6
Cc1ccc2cccc(OCC(=O)c3cc(C)n(Cc4ccco4)c3C)c2n1 | x | x | 95.7 | i | x | -19.1 | 10.9 | 4.9 | eIF4H FP inh retest=15.0;PABP polyA inh retest=20.2

Retrieved by compound from the list above, 2 records:
SMILES | MT1-MMP act inh | MT1-MMP act inh RFP | eIF4H FP inh | Rce1 inh | UUG fidelity | HIV Env fusion | PABP polyA inh | CSC inhib | others
COC(=O)c1ccc(C2/C(=C(/O)c3ccc4c(c3)CC(C)O4)C(=O)C(=O)N2Cc2cccnc2)cc1 (stereo not given) | 2.8 | 2.7 | -2.0 | i | -18.1 | x | 6.3 | -7.1
O=C(COc1ccc(Br)cc1Cl)N1CCN(c2ccccn2)CC1 | -3.7 | 6.2 | -12.8 | i | 0.2 | 18.9 | -3.6 | x

(listing goes on)
SMILES | MT1-MMP act inh | MT1-MMP act inh RFP | eIF4H FP inh | Rce1 inh | UUG fidelity | HIV Env fusion | PABP polyA inh | CSC inhib | others
COc1cccc(-c2cc(C(=O)Nc3ccc([N+](=O)[O-])cn3)c3ccccc3n2)c1 | 8.8 | 1.0 | 2.0 | i | x | 18.7 | -4.4 | 13.6
CN(C)c1ccc(C(=S)N2CCN(S(=O)(=O)c3ccccc3)CC2)cc1 | -1.0 | -1.0 | 3.3 | i | -23.0 | 8.8 | 9.2 | 3.9
CC1(C2(O)CC(c3ccccc3)ON2)CCCCC1 (stereo not given) | x | x | -5.2 | i | x | x | -8.1 | -11.9
COc1ccc(O)c(/C=N/NC(=O)CCC(=O)Nc2cccc(C)c2)c1 | 7.5 | 1.3 | 9.2 | i | x | 3.6 | 2.0 | 44.6
CCOc1ccc(-c2cccc(NS(=O)(=O)c3cccc([N+](=O)[O-])c3)c2)nn1 | 3.4 | 4.8 | x | x | -0.3 | -4.9 | x | x
CCOc1ccc(C(C(=O)NC2CCCC2)N(Cc2ccccc2)C(=O)c2nsc(Cl)c2Cl)cc1 (stereo not given) | -55.1 | -42.5 | -6.4 | i | -13.3 | x | -8.2 | 34.5
O=C(CCc1ccccc1)Nc1nc2n(n1)C(c1ccccc1)CC(=O)N2 (stereo not given) | -1.4 | -3.8 | -9.3 | x | -8.7 | x | 5.3 | -5.1
Cc1ccc(C)c(N/N=C2\CCCNC2=O)c1 | 3.4 | 3.9 | 7.1 | i | x | x | 6.9 | 6.7
COC(=O)c1cc(=O)nc2sc(-c3ccccc3)nn12 | 2.4 | 5.0 | -0.9 | i | -12.0 | -1.8 | -5.9 | -0.5
O=C(Nc1ccc(S(=O)(=O)Nc2ncccn2)cc1)c1nn(Cc2ccccc2)c(=O)c2ccccc12 | -4.6 | 0.7 | 0.6 | i | 17.1 | 13.4 | 4.5 | 7.9
COc1cccc(N2CCN(C(=O)CN(c3cc(C)cc(C)c3)S(=O)(=O)c3c(C)noc3C)CC2)c1 | -2.5 | -3.4 | -8.8 | i | -3.7 | 7.9 | -4.5 | -6.9
C/C(=N/O)c1no[n+]([O-])c1/C(C)=N\O | -1.8 | -1.8 | -6.6 | i | -11.1 | 1.7 | -4.7 | -2.3
COc1ccc(C(=O)N2CCN(S(=O)(=O)c3ccc(Cl)cc3)CC2)cc1OC | 7.3 | 3.4 | -5.7 | i | 3.8 | -27.3 | 1.2 | -3.6
COc1ccc(-c2nc(CN3CCN(c4ncccn4)CC3)c(C)o2)cc1C | -2.4 | 0.2 | 8.0 | x | x | -12.3 | 1.9 | -9.6
C[C@@H]1C[C@@H]2OC(=O)[C@]3(C)[C@H]2[C@@H](OC3(C)O)[C@]2(C)C(=O)CC[C@H]12 (stereo not given in full) | x | x | 1.9 | i | x | x | 1.0 | -8.5
CCCOc1ccc(C(=O)C(c2ccccc2)N2CCOCC2)cc1 (stereo not given) | 4.1 | -3.4 | -1.9 | i | -26.2 | x | 5.8 | -12.7
COc1ccc(S(=O)(=O)N2CCC(C(=O)N[C@H](C(=O)NC3CCCC3)C(C)C)CC2)cc1 | 0.2 | -5.1 | x | i | -8.2 | 2.4 | x | -10.6
CC(CCc1ccccc1)NC(=O)C(=O)Nc1ccccc1 (stereo not given) | 3.9 | 4.3 | -2.5 | i | x | -48.9 | 7.3 | -3.3
FC(F)(F)c1cccc(CN2CCSCC2)c1 | 0.8 | 0.8 | 6.5 | i | -8.9 | -13.9 | 0.6 | -26.6
Cc1ccc(S(=O)(=O)Nc2ccc3cn[nH]c3c2)cc1C | -5.5 | -4.5 | x | x | -1.6 | x | x | -0.7
Cc1c(NS(=O)(=O)c2ccc(NC3CCCC3)c([N+](=O)[O-])c2)c(=O)n(-c2ccccc2)n1C | 3.8 | 5.5 | -2.6 | i | x | -26.8 | -7.2 | -10.7
Cc1sc2ncnc(N3CCCCC3)c2c1C | -4.1 | -13.7 | -10.8 | i | -18.0 | x | -8.1 | -10.9
Cc1cc(C)nc(N2CCCC(C(=O)NC(C)C)C2)n1 (stereo not given) | -0.1 | 2.1 | -8.5 | i | x | -7.6 | -14.1 | -9.0
Cc1cccc(-c2cc(C(=O)Nc3sc(C)c(C)c3C(N)=O)c3ccccc3n2)c1 | -4.5 | -3.3 | -0.6 | i | -18.9 | x | -1.6 | 36.9
O=C(O)c1ccc(N=Nc2c(O)[nH]c3ccccc23)cc1 | -10.4 | -4.9 | 10.2 | i | -30.2 | -24.6 | 8.0 | 30.1

Continuation.
SMILES | MT1-MMP act inh | MT1-MMP act inh RFP | eIF4H FP inh | Rce1 inh | UUG fidelity | HIV Env fusion | PABP polyA inh | CSC inhib | others
Cc1cccc(N/C=C/C(=O)c2cccs2)c1C | -4.0 | 4.4 | -10.5 | i | x | x | 4.1 | x
CCn1c(C)c(P(=O)(N2CCOCC2)N2CCOCC2)c2ccccc21 | -1.0 | 6.1 | 1.4 | i | x | 12.3 | 2.6 | 10.0
O=c1[nH]c(/C=C/c2cccc([N+](=O)[O-])c2)c([N+](=O)[O-])c(=O)[nH]1 | -2.8 | -4.2 | -10.4 | i | -14.2 | 9.9 | 15.7 | 1.8
COc1ccc(/C=N/NC(=O)c2ccc(NC(=O)c3ccccc3Br)cc2)cc1 | 8.5 | 3.9 | -2.3 | i | x | x | -6.5 | -6.8
O=C(NCCc1nc2ccccc2[nH]1)/C(=C/c1ccc2c(c1)OCO2)NC(=O)c1ccccc1Cl | 4.3 | 4.5 | 1.0 | i | x | -15.0 | 8.5 | -14.3
O=C1CCC(C(=O)N2CCOCC2)CN1Cc1cccc(C(F)(F)F)c1 (stereo not given) | 3.3 | 3.9 | -13.5 | i | -12.4 | -10.7 | -11.7 | -3.6
O=C(O)Cc1ccc(NC(=O)C2CCCCC2C(=O)O)cc1 (stereo not given) | 4.8 | 6.9 | -1.6 | i | -13.7 | -189.1 | -3.6 | -7.8
CCc1ccc(-c2nc(SCC(=O)NC3CCCC3)n[nH]2)cc1 | -0.9 | -28.4 | 45.6 | i | -3.5 | 56.7* | 5.7 | -17.8
Cc1ccc(S(=O)(=O)N2C[C@H]3N(C(=O)OC(C)C)N(C(=O)OC(C)C)C[C@H](OC(=O)NCc4ccccc4)[C@@]3(O)C2)cc1 | -1.3 | 0.5 | x | x | 15.2 | -42.0 | x | x
